Sfp PPTase inh – blocks B. subtilis Sfp PPTase activity; Biochemical Sfp PPTase activity, qHTS; Potency, µM, without a hit: max response, negative = inhibition, actives largely listed as inhibitors; hit rate 3.5% among 310,000; active means well fitted inhibition curve with a large enough effect; inconclusive means small, poorly fitted or top-dose-only effect, or another doubt; inactive means no such curve, though single readings can be large or run the other way;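 further: the enzyme is Sfp with the accession as filed and its product quenches rhodamine fluorescence; potency means the concentration at half of the fitted maximal effect; 0% = enzyme reaction without inhibitor and -100% = no enzyme wells; top concentration of the series not given in the record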
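Sfp 15 nM + cpd, 15 min RT; start w/ rhodamine-CoA 5 uM, BHQ-2-YbbR 12.5 uM (final); 50 mM Hepes pH 7.6, 10 mM MgCl2, 0.01% NP-40, 0.01% BSA; read 525/598 nm at 0 and 30 min.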
gsp antag – antagonists of gsp mutant (McCune-Albright syndrome); gsp-mutant cells, cAMP HTRF, 30 min; control for the full effect not named in the record; Potency, µM (highest dose often 76.9 µM), inactives show at the highest dose activity change, negative = inhibition, actives largely listed as inhibitors; hit rate 0.4% among 340,000; AID 624288; active = falling curve of any shape with a large fitted effect; inconclusive = falling curve, mostly with a smaller effect; inactive = flat or rising curve; cell line not stated here;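 further: intracellular cAMP measured with PDE inhibitor Ro 20-1724 present during compound exposure; potency means the concentration at half of the fitted maximal effect; on the % scale 0 is the no-effect control and ±100 the full control effect; nearly all actives have a fitted effect of over 65% in size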
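HTRF cAMP read-out (cAMP-d2 plus anti-cAMP antibody-K in lysis buffer, 30 min RT). Before lysis, cells are exposed to compounds with […] for 30 min at 37C in DPBS containing Ca/Mg, BSA and Tween 20.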
Menin-MLL FL inh – menin-MLL binding inhibition, fluorescein peptide | Fluorescence polarization, fluorescein-MLL peptide displacement from menin | FP activity change, % at 61.4 µM | 290,000 tested, under 10 active | AID 1766; inconclusive = falling polarisation curve, or a change in total fluorescence; inactive = total fluorescence flat and polarisation flat or rising; no compound was filed as active; the % refers to the polarisation; negative = inhibition;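 further: % of control where 0% means no effect; inhibitors lower the polarisation; unlabelled MLL peptide was the positive control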
TRPML1 blocker – inhibitors of human TRPML1 channel; Q9GZU1; TRPML1-inducible cells, Ca2+ dye fluorescence, FDSS; active compounds read low; inhibition of EC80 agonist-evoked calcium signal; activity change, negative = inhibition, % (test concentration not listed); hit rate 0.02% among 390,000; in the data active means activity change below about -50%; inconclusive means about -30% to -50%; inactive means above about -30%;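 further: stimulus is agonist 54-4 at its EC80 concentration; on the % scale 0 is the no-effect control and ±100 the full control effect; compound concentration not given in the record; the text of the record puts the active cut at -80%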
Target sequence (Q9GZU1 whole entry, looked up): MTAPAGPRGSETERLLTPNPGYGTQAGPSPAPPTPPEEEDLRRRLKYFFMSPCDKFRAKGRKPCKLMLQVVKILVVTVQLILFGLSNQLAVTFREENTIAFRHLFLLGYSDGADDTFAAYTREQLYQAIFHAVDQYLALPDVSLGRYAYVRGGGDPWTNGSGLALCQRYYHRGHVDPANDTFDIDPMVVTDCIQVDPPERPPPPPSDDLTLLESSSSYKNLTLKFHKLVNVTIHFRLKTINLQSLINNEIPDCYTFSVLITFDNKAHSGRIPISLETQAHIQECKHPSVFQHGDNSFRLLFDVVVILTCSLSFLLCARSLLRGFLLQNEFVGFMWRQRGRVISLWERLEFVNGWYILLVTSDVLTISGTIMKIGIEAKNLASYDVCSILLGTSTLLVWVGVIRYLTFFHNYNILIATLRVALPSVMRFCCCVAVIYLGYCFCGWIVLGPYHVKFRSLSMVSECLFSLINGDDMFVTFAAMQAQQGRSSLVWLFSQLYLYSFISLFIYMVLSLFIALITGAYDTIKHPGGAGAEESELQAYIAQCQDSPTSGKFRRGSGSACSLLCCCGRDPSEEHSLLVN
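Tet-induced TRPML1-DL cells loaded with Ca8 no-wash calcium dye were read kinetically on FDSS. Compound addition was followed by EC80 agonist 54-4 (4 uM final); inhibition was read over 110 s.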
TRPV1 potentiator – enhances activation of the human vanilloid receptor TRPV1. potentiation, % at 8.33 µM. TRPV1-expressing cells, Fluo-8 calcium influx, capsaicin EC20 potentiation; host cell line not named in the record; control for the full effect not named in the record. hit rate 0.02% among 320,000. AID 540277; active means potentiation above 80%; inconclusive means 30% to 80%; inactive means below 30%; further: 0% is about no effect
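TRPV1-expressing cells were cultured overnight at 35.5C and loaded with Fluo-8 calcium dye for 40 to 90 min at room temperature. After a 10 s baseline, compound was added and calcium influx was read kinetically for 3 min (ex 480/em 520 nm).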
gsp agonist – gsp mutant agonism. Potency, µM (highest dose often 76.9 µM), for inactives: at the highest dose activation (cAMP increase), usual class: activators. gsp mutant cells, cAMP HTRF, 30 min; control for the full effect not named in the record. hit rate 0.13% among 340,000. AID 624287; active = well fitted activation curve with a large enough effect; inconclusive = small, poorly fitted or top-dose-only effect, or another doubt; inactive = no such curve, though single readings can be large or run the other way; cell line not stated here;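 further: phosphodiesterase inhibitor Ro 20-1724 added with compounds to block cAMP breakdown; potency means the concentration at half of the fitted maximal effect; nearly all actives have a fitted effect of over 60% in size; about a fifth of the inactives were tested at one dose only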
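Cells stably selected in G418 were plated at 2000/well, grown 16-24 hr, then given compounds in DMSO with the PDE inhibitor […] (300 uM solution added) for 30 min at 37C; cAMP was read by HTRF.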
ClpP mod – qHTS Assay for Activators of ClpP | ATP-dependent Clp protease proteolytic subunit (Bacillus subtilis (strain 168)), P80244 | purified B. subtilis ClpP, FRET peptide cleavage, 20 min | Potency, µM (highest dose often 57.5 µM), without a hit: top-dose activity change, negative = active | hit rate 1.9% among 340,000; active = well fitted falling curve with a large enough effect; inconclusive = small, poorly fitted or top-dose-only effect; inactive = no such curve, though single readings can be large or run the other way; further: potency means the concentration at half of the fitted maximal effect; the source files actives as falling curves though it sought activators and does not explain the sign; nearly all actives have a fitted effect of over 65% in size; many hits overshoot -100%
Target sequence (P80244 whole entry, looked up): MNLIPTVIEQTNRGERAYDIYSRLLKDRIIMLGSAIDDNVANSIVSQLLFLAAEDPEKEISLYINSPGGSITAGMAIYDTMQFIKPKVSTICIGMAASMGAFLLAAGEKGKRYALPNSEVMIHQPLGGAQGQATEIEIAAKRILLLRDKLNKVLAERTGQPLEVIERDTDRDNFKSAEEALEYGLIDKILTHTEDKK
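Buffer: 100 mM Tris/HCl pH8, 100 mM KCl, 0.05% low protease BSA, 2.5% glycerol, 0.01% Tween-20. ClpP 10 microg/mL final; 20 min RT; delta FRET normalized to ADEP and DMSO controls.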
An asterisk follows results filed as active; ? = inconclusive; nt = not tested or not shown; & = joins results of further samples; [ ] = dose if it differs, or a comment.

compound,Sfp PPTase inh,gsp antag,Menin-MLL FL inh,TRPML1 blocker,TRPV1 potentiator,gsp agonist,ClpP mod
COc1ccc2c(c1)CC(C1(O)C(=O)Nc3ccccc31)C2=O (stereo not given),9%,-7%,1.1,-8,4,-45%[inhibitor],-1.4%
Cc1cc(C(=O)N2CCN(C(=O)C3CCCO3)CC2)no1 (stereo not given),8%,0%,-0.8,-9,0,17%,-1.6%
COc1cc(OC)c(C(=O)OCCCOC(=O)c2cc(OC)c(OC)cc2OC)cc1OC,?,10%,nt,6,23,-29%,1.3%
COc1ccc(C(=O)NC(=S)Nc2ccc(N3CCN(C(C)=O)CC3)cc2)cc1[N+](=O)[O-],16%,-26%,3.2,-14,5,15%[15.4 µM],-2.9%
CCC(=O)N1CCCn2c1nc1ccccc12,11%,5%,3.2,4,25,-8%,-0.6%
CCOC(=O)c1cc2sc(C)cc2n1CC(=O)N1CCc2ccccc21,7%,-2%,1.6,-6,12,?,-2.9%
O=C(COC(=O)C1C2CC3OC(=O)C1C3C2)Nc1ccc(Br)cc1 (stereo not given),?,1%,0.4,16,9,?,nt
COc1ccc(OC)c(N(CC(=O)Nc2ccccc2)S(=O)(=O)c2ccccc2)c1,1%,?,-3.3,17,1,27%,0.0%
Cc1cccc(-c2nc(CSc3nc4c(c(=O)[nH]3)CCC4)c(C)o2)c1,2%,4%,2.3,37,1,6%,-2.7%
CCC(C)NC(=S)Nc1ccccc1 (stereo not given),15%,9%,2.1,20,-21,-2%,nt
Cc1ccc(OC(C)C(=O)Nc2ccc(S(=O)(=O)Nc3nccs3)cc2)cc1 (stereo not given),7%,-6%,-0.2,34,23,-2%,1.2%
O=C(Nc1ccccc1CC[N+](=O)[O-])N1CCN(c2ccccc2)CC1,8%,-7%,1.0,0,7,6%[15.4 µM],nt
CC(C)CCn1nc(C(=O)OCC(=O)NC(C)c2ccccc2)c2ccccc2c1=O (stereo not given),nt,nt,nt,-10,nt,12%,-1.1%
O=C(Nc1ccccc1C(F)(F)F)C1CCCC1,-10%,5%,-1.6,9,-3,4%[15.4 µM],1.4%
COc1ccc(C(=O)NNC(=O)c2cccs2)cc1S(=O)(=O)N1CCOCC1,nt,7%,nt,18,nt,?,-7.2%
CCOc1ccccc1CNC(=O)c1ccc(NC(=O)C2=CSCCO2)cc1,3%,?,nt,8,-16,?,-2.4%
COC(=O)[C@@H](NC(=O)O[C@@H]1C(=O)c2cc(Br)ccc2O[C@H]1c1cccc(OC)c1)C(C)C,13%&12%,nt,4.1&14,nt,9,nt,nt
NC(=O)c1nsc(C(=O)N(c2ccccc2)C(C(=O)NCc2ccc(F)cc2)c2ccco2)c1N (stereo not given),9%,-29%,0.4,-13,-1,0%[15.4 µM],nt
Cc1ccc(/C=[N+](/C)[O-])cc1,17%,-3%,3.9,7,14,-27%,nt
O=C(COc1ccc2ccc(=O)oc2c1)NCCc1c[nH]c2ccc(F)cc12,-4%,-14%,nt,-4,16,?,3.9%
CCCCn1c(=O)[nH]c(=O)c2c1nc(-c1ccc([N+](=O)[O-])cc1)n2CC,15%,-13%,-2.4,-1,3,?,nt
CCOC(=O)c1[nH]c(C)c(CN(CCc2ccccc2)S(C)(=O)=O)c1C,25%,-7%,3.3,-9,nt,-48%[inhibitor],-1.1%
COc1ccc(N2CCCC2)c(NC(=O)c2ccc([N+](=O)[O-])o2)c1,0%,-4%,?,13,4,-2%[15.4 µM],-10%
O=C(CCNC(=O)N1CC(=O)Nc2ccccc21)NCCc1cccc(F)c1,3%,6%,nt,5,?,-1%,-1.6%
COc1ccc(-c2ncncc2-c2csc(C)n2)c(O)c1,-12%,0%,1.1,-5,2,3%,-1.7%
O=C(NC1CCCC1)C(c1ccccn1)N(C(=O)c1csnn1)c1ccccc1 (stereo not given),6%,-5%,-3.8,1,10,26%,nt
CCN1CCN(C(=O)/C=C/c2cccc(Cl)c2)CC1,-3%,4%,-1.4,24,-17,22%,-2.4%
COc1ccc(CCNC(=O)c2c[nH]c3ccc(F)cc3c2=O)cc1OC,4%,-6%,-3.8,-14,5,0%,1.5%
CC(CCc1ccccc1)NC(=O)c1nnc(Cc2ccc(F)cc2)o1 (stereo not given),19%,5%,7.2,-1,-1,?,0.2%
COc1cccc(NC(=O)CN(C)C(=O)CN2C(=O)NC(C)(c3ccc4ccccc4c3)C2=O)c1 (stereo not given),nt,-23%,nt,26,15,-56%[inhibitor],?
CCOc1ccccc1C1NC(=O)CCC1[N+](=O)[O-] (stereo not given),12%,0%,1.0,8,18,10%[15.4 µM],-6.4%
Cc1noc(C)c1C(=O)NCC(=O)Nc1ccccc1Br,nt,8%,nt,5,nt,-4%,-2.1%

Another view of four compounds above:
Below each SMILES: Sfp PPTase inh, gsp antag, Menin-MLL FL inh, TRPML1 blocker, TRPV1 potentiator, gsp agonist, ClpP mod
Cc1cccc(-c2nc(CSc3nc4c(c(=O)[nH]3)CCC4)c(C)o2)c1
  2%, 4%, 2.3, 37, 1, 6%, -2.7%
COc1ccc(C(=O)NNC(=O)c2cccs2)cc1S(=O)(=O)N1CCOCC1
  nt, 7%, nt, 18, nt, ?, -7.2%
COc1ccc(-c2ncncc2-c2csc(C)n2)c(O)c1
  -12%, 0%, 1.1, -5, 2, 3%, -1.7%
COC(=O)[C@@H](NC(=O)O[C@@H]1C(=O)c2cc(Br)ccc2O[C@H]1c1cccc(OC)c1)C(C)C
  13%&12%, nt, 4.1&14, nt, 9, nt, nt

Molecules from the list above containing a furan ring, fused or not:
compound,Sfp PPTase inh,gsp antag,Menin-MLL FL inh,TRPML1 blocker,TRPV1 potentiator,gsp agonist,ClpP mod
NC(=O)c1nsc(C(=O)N(c2ccccc2)C(C(=O)NCc2ccc(F)cc2)c2ccco2)c1N (stereo not given),9%,-29%,0.4,-13,-1,0%[15.4 µM],nt
COc1ccc(N2CCCC2)c(NC(=O)c2ccc([N+](=O)[O-])o2)c1,0%,-4%,?,13,4,-2%[15.4 µM],-10%

(list continues)
compound,Sfp PPTase inh,gsp antag,Menin-MLL FL inh,TRPML1 blocker,TRPV1 potentiator,gsp agonist,ClpP mod
CC(O)[C@H]1CNC(=O)C(=O)N1CCc1cccc2ccccc12 (stereo not given in full),15%,15%,1.9,5,-5,18%,1.5%
CC(C)CC(=O)Nc1ccnn1C1CCN(C(=O)c2ccc(F)cc2Cl)CC1,6%,15%,nt,-11,10,2%[15.4 µM],0.9%
COc1ccccc1C1C([N+](=O)[O-])=CC([N+](=O)[O-])=CN1C (stereo not given),-24%,-16%,2.7,-12,-2,4%,nt
Cc1n[nH]c(C)c1CN(C)C(=O)C1CCC(=O)N(CCc2cccc(F)c2)C1 (stereo not given),6%,9%,-3.5,-3,-17,30%,-3.4%
CC(CCc1ccccc1)NC(=O)Cc1ccc([N+](=O)[O-])cc1 (stereo not given),10%,3%,7.7,0,-21,0%,-0.7%
COc1ccc(-c2[nH]ncc2CN2CCCC(C(=O)c3ccc(OC)cc3OC)C2)cc1 (stereo not given),10%,3%,-6.3,-11,3,16%[15.4 µM],nt
O=C(CN1CCOCC1)Nc1ccc2c(c1)OCO2,9%,7%,-7.9,-4,3,?,-0.5%
CCOc1ccc(NC(=O)CCC(=O)Nc2cc(OC)c(NC(=O)c3ccco3)cc2OC)cc1,1%,-18%,-6.1,27,?,2%[15.4 µM],nt
CC(C)COc1ccc(/C(O)=C2/C(=O)C(=O)N(CCN(C)C)C2c2ccncc2)cc1 (stereo not given),?,16%,1.2,23,9,5%,-1.6%
CCOC(=O)c1cnn(-c2ccc(C(F)(F)F)cn2)c1N,2%,3%,-1.9,10,-7,-17%,0.1%
O=C(CSc1nccn1Cc1ccco1)Nc1ccccc1C(F)(F)F,13%,-6%,1.6,-10,2,0%,-1.4%
O=C(COC(=O)c1cccc(Cl)c1Cl)NC1CCCCCC1,nt,nt,nt,-1,nt,-36%[inhibitor],0.3%
COCC(CN1CCN(C2=NS(=O)(=O)c3ccccc32)CC1)OC(=O)c1ccccc1 (stereo not given),10%,-7%,-1.9,11,22,-23%[15.4 µM],nt
COC(=O)c1ccc(NC(=O)COC(=O)CCC2CCCC2)cc1,nt,14%,nt,4,-15,6%,-0.7%
CC(C)(C)NC(=O)CSc1nsc(SCC(=O)NC(C)(C)C)c1C#N,2%,?,-0.7,-5,12,-24%,0.0%
Cc1cccc(NS(=O)(=O)c2ccc(C)c(C(=O)N3CCN(C(=O)c4ccco4)CC3)c2)c1,nt,-9%,nt,13,nt,10%[15.4 µM],0.8%
COc1cc(NC(=S)NN2CCOCC2)cc(OC)c1,nt,10%,nt,4,nt,12%[15.4 µM],-5.2%
COc1cc(OC)cc(C(=O)Nn2cnnc2)c1,-5%,9%,1.5,7,11,-2%[15.4 µM],-12%
CCC(C)c1ccc(OCC(=O)Nc2cccc(C(=O)Nc3ccc(C(=O)O)cc3)c2)cc1 (stereo not given),5%,?,nt,-1,-7,7%,-0.3%
O=C(NCC1CCCO1)c1onc(CSc2ccc(Cl)cc2)c1C(=O)O (stereo not given),13%,2%,-0.4,4,-7,-2%,-0.3%
C=CCSc1nsc(N)n1,5%,5%,2.5,-2,2,-8%,0.5%
O=C1C2CSCN2C(=O)CN1CCCN1CCN(C(c2ccccc2)c2ccccc2)CC1 (stereo not given),-17%,-12%,0.8,-12,-7,15%,1.0%
O=C(Nc1cc(C(F)(F)F)ccc1N1CCOCC1)C1=COCCO1,nt,-16%,nt,-14,-10,-1%[15.4 µM],-5.3%
Cn1nnnc1SCc1nnc(-c2ccc(F)cc2)o1,4%,6%,-2.9,-1,3,2%,-1.7%
Cc1ccc(Cl)cc1N=C(N)N=C(N)N,21%,8%,4.6,-4,-12,-1%[15.4 µM],-3.0%

Assay outcomes as filed in PubChem.
